SARS PLP yeast = qHTS of Yeast-based Assay for SARS-CoV PLP | S. cerevisiae expressing SARS-CoV PLpro, growth rescue; control for the full effect not named in the record | Potency, µM (doses to about 32.9 µM), without a hit: top-dose activity, positive = growth rescue | AID 485353, 2010 | hit rate 0.19% among 330,000; active means well fitted rising curve with a large enough effect; inconclusive means small, poorly fitted or top-dose-only effect; inactive means no such curve, though single readings can be large or run the other way; note: 0% is about no effect; nearly all actives have a fitted effect of over 55% in size; growth read by luminescence after 48 h
Marburg entry inh = qHTS for inhibitors of binding or entry into cells for Marburg Virus; Potency, µM (titrated, usually from 37.8 µM), for the others: top-dose activity change, negative = inhibition, actives largely listed as inhibitors; hit rate 1.8% among 300,000; Marburg virus pseudotyped entry inhibition, cell reporter; control for the full effect not named in the record; about a third of the inactives were read at about 46 µM; active = well fitted inhibition curve with a large enough effect; inconclusive = small, poorly fitted or top-dose-only effect, or effect the other way; inactive = flat fitted curve, though single readings scatter; tested in HEK293 cells; about a fifth of its hits are not listed in these tables; note: % is set by controls: 0 for no effect and ±100 for the full control effect; luciferase read-out
StopGo reporter = High Throughput Screening for Foot and Mouth Disease Virus Antivirals; Potency, µM (top dose mostly 57.9 µM), without a hit: at the highest dose signal change, negative = less light; human cells with a luciferase reporter of 2A StopGo recoding; control for the full effect not named in the record; hit rate 1.2% among 410,000; active = well fitted falling curve with a large enough effect; inconclusive = small, poorly fitted or top-dose-only effect; inactive = no such curve, though single readings can be large or run the other way; tested in HEK293T cells; note: % is set by controls: 0 for no effect and ±100 for the full control effect; nearly all actives have a fitted effect of over 45% in size; luciferase light after 4 h
RE007 growth inh = qHTS Assay for Inhibitors of the HIV-1 protein Vpr | S. pombe RE007 Vpr strain, BacTiter-Glo ATP luminescence, 24 h; control for the full effect not named in the record | Potency, µM (top dose mostly 92.2 µM), for inactives: at the highest dose activity change, negative = less growth | hit rate 0.21% among 360,000 | AID 651644, 2012; active = well fitted falling curve with a large enough effect; inconclusive = small, poorly fitted or top-dose-only effect; inactive = no such curve, though single readings can be large or run the other way;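 note: % is set by controls: 0 for no effect and ±100 for the full control effect; nearly all actives have a fitted effect of over 50% in size; the assay follows cell death caused by Vpr and the record does not say whether a fall means rescue or toxicity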
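Fission yeast RE007 carrying one integrated HIV-1 vpr copy, seeded at OD 0.01 in PMG+AL medium with 23 nL pinned compound. Grown 24 h at 30 degrees; viability read by BacTiter-Glo luminescence after 5 min.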
NS1 function inh = qHTS Assay for Inhibitors of Influenza NS1 Protein Function. S. cerevisiae slowed by influenza A NS1, growth recovery by OD600. Potency, µM (titrated, usually from 46.1 µM), for the others: top-dose activity, positive = more growth. hit rate 0.4% among 270,000. AID 2326, 2010; active means well fitted rising curve with a large enough effect; inconclusive means small, poorly fitted or top-dose-only effect; inactive means no such curve, though single readings can be large or run the other way; note: nearly all actives have a fitted effect of over 50% in size
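OD600 was taken as the measure of yeast growth restored by compound in an NS1-expressing S. cerevisiae strain. Cells had been washed out of glucose medium and diluted 1:100 into galactose -URA medium, pH 6.0.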
LASV entry inh = qHTS for Inhibitors of binding or entry into cells for Lassa Virus; Lassa virus pseudotype entry inhibition, cell reporter; control for the full effect not named in the record; Potency, µM (titrated, usually from 37.9 µM), for inactives: at the highest dose activity change, negative = inhibition, usual class: inhibitors; hit rate 1.2% among 300,000; active means well fitted inhibition curve with a large enough effect; inconclusive means small, poorly fitted or top-dose-only effect, or effect the other way; inactive means flat fitted curve, though single readings scatter; tested in HEK293 cells; note: % is set by controls: 0 for no effect and ±100 for the full control effect; nearly all actives have a fitted effect of over 50% in size; luciferase read-out
Cruzain inh Det = qHTS Assay for Promiscuous and Specific Inhibitors of Cruzain (with detergent); purified cruzain, Z-FR-AMC fluorescence, 0.01% Triton; hit rate 0.43% among 200,000; AID 1478, 2009; Potency, µM, for inactives: max response, negative = inhibition, usual class: inhibitors; Cruzipain (Trypanosoma cruzi), P25779;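 note: plate controls were neutral wells for no effect and buffer without enzyme for full effect; nearly all actives have a fitted effect of over 40% in size; top concentration of the series not given in the record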
Target sequence (P25779 123-467 limits assumed): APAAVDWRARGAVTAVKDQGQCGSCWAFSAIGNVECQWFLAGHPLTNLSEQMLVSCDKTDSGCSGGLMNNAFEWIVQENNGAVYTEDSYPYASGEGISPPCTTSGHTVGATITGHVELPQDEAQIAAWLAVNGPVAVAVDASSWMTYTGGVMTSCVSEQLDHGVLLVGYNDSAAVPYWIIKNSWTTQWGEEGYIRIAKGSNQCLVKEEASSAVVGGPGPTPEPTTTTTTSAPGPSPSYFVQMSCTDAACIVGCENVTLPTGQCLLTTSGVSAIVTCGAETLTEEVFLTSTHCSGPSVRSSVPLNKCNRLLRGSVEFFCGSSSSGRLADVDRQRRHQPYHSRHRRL
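Detergent-containing arm of a paired screen for aggregation-based inhibition: 0.01% Triton X-100 present. Cruzain at 1.5 nM cleaved 2 uM Z-FR-AMC at pH 5.5 with 5 mM DTT; AMC fluorescence gain over 60 s measured activity.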
Cruzain inh noDet = qHTS Assay for Promiscuous and Specific Inhibitors of Cruzain (without detergent) | Potency, µM, for inactives: max response, negative = inhibition, most hits filed as inhibitors | purified cruzain, Z-FR-AMC fluorescence, no detergent | hit rate 2.3% among 200,000;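 note: plate controls were enzyme without inhibitor for no effect and buffer without enzyme for full effect; nearly all actives have a fitted effect of over 40% in size; top concentration of the series not given in the record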
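Purified cruzain at 1.5 nM, pre-incubated 15 min with compound at room temperature in 100 mM sodium acetate pH 5.5, 5 mM DTT, 0.00005% Triton X-100. Reaction started with 2 uM Z-FR-AMC; AMC fluorescence increase over 60 s gives rate.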
* marks the source's active call; other numbers are inactive results; ? = inconclusive; nt = no result given; [ ] = remark or other dose. Unless noted, calls come from the whole dose curve; as a rule, active = well fitted curve in the direction sought with a large enough effect; inconclusive = small, poorly fitted or top-dose-only effect, or another doubt; inactive = no such curve, though single readings can be large; an effect the other way counts as inactive or inconclusive. Potency is the fitted concentration of half-maximal effect.

SMILES	SARS PLP yeast	Marburg entry inh	StopGo reporter	RE007 growth inh	NS1 function inh	LASV entry inh	Cruzain inh Det	Cruzain inh noDet
OCc1nc2ccccc2n1CC(O)Cn1ccc2ccccc21 (centres undefined)	-1.5%	-11.5%	28.2µM*	-3.1%	1.8%	-22.4%	-1.0%	-6.1%
Cc1cccc(-n2nc3c(c2NC(=O)c2ccc(S(=O)(=O)N4CCOCC4)cc2)CSC3)c1C	-1.0%	29.2%	-7.3%	19.9%	-1.5%	2.2%	2.3%	11.1%
Cc1nc(-c2ccccc2)cc(-c2ccccc2)n1	nt	0.7%[46.1 µM]	-4.3%	4.9%	nt	-3.0%	nt	nt
Cc1ccc(S(=O)(=O)n2nc(OC(=O)c3cccs3)cc2N)cc1	19.7%	-2.4%	0.0%	5.4%	3.9%	4.5%	-18.0%	-1.4%
Cc1ccc(C2(c3noc(CN4CCC(c5ccncc5)CC4)n3)CCCC2)cc1	-1.0%	?	-25.8%	-9.9%	-4.9%	-18.9%[46.1 µM]	nt	nt
O=C(N/N=C/c1ccccc1Cl)c1n[nH]c2c1CCCC2	-18.2%	1.3µM*	?	-10.0%	?	?	-0.1%	25.1µM*
Cc1ccc(C)c(S(=O)(=O)Nc2cc3c4c(c2)CCC(=O)N4CCC3)c1	-2.3%	-9.0%[46.1 µM]	48.1%[activator]	11.8%	nt	-28.4%	nt	nt
O=C(NC1CCS(=O)(=O)C1)c1ccc(Br)s1 (centres undefined)	3.0%	0.8%	-15.2%	3.4%	nt	0.7%	nt	nt
CC(C)Cc1ccc(CN2CCCC(NC(=O)Cn3cnnn3)C2)cc1 (centres undefined)	10.7%	?	-20.9%	-19.4%	14.1%	23.9%	nt	nt
O=c1c(-c2ccc(O)cc2)coc2cc(OC3OC(CO)C(O)C(O)C3O)cc(O)c12 (centres undefined)	3.5%	?	62.9%[activator]	-14.2%	1.7%	?	-1.6%	-12.9%
COC(=O)NCc1cc2cc(Cl)ccc2[nH]1	-58.7%	?	-1.8%	10.0%	-92.1%	-23.8%	-11.2%	-0.2%
Nc1nnc(CC(=O)Nc2ccccc2)s1	-0.3%	21.7%[46.1 µM]	15.1%	-8.9%	2.7%	2.5%	nt	nt
CN1C[C@@H]2C[C@@H](c3ccc(C#CC(C)(C)O)s3)N3CCC[C@@]23C1=O	0.4%	nt	-13.7%	8.1%	1.0%	nt	nt	nt
CCOc1ccc(Nc2nnc(-n3nc(C)cc3C)c3ccccc23)cc1	nt	23.6%[46.1 µM]	11.3%	nt	nt	1.3%[46.1 µM]	-0.2%	-22.4%
COc1ccc(OCC(O)CNCc2ccco2)cc1 (centres undefined)	0.5%	8.8%	-19.6%	6.5%	-1.9%	3.3%	5.6%	-4.4%
O=C(c1cccc(F)c1)N1CCN(C2CCCCC2)CC1	3.4%	7.4%	nt	-20.2%	4.7%	6.2%	4.0%	7.0%
COc1ccc(CC(=O)Nc2ccc(C(=O)NC(C)(C)C)cc2)cc1	5.4%	?	0.6%	-11.4%	14.7%	-4.5%	-2.8%	10.6%
COc1ccc(S(=O)(=O)N(CC(=O)NCc2ccccn2)Cc2ccccc2)cc1	-5.7%	12.6%[46.1 µM]	1.4%	3.8%	-7.1%	-5.3%	nt	nt
Cc1cc(NC(=O)CCNS(=O)(=O)c2ccc3c(c2)oc(=O)n3C)ccc1Br	nt	0.6%[46.1 µM]	1.7%	nt	nt	1.2%[46.1 µM]	-1.2%	-4.8%
CC1(C)NC(=O)N(CN2C(=O)NC(C)(C)C2=O)C1=O	3.1%	10.6%	-12.5%	0.4%	-0.7%	2.8%	1.9%	5.5%
CCCN(C(=O)CSc1n[nH]c(-c2ccc(OC)cc2)n1)c1c(N)n(Cc2ccccc2)c(=O)[nH]c1=O	3.4%	?	9.2%	-3.0%	nt	-22.7%	nt	nt
N#Cc1c(-c2ccccc2)cc(-c2ccccc2)nc1SCC(=O)O	2.0%	nt	-27.9%	2.7%	8.3%	nt	nt	nt
O=C(c1ccc(Cn2cc(Cl)cn2)o1)N1CCN(Cc2ccc3c(c2)OCO3)CC1	4.4%	-2.4%[46.1 µM]	?	-2.2%	-7.4%	-15.6%	4.8%	7.2%
COc1ccc(C=O)cc1COc1c(F)c(F)cc(F)c1F	2.9%	-9.0%	0.0%	-18.7%	-51.0%	-5.3%	-5.6%	-2.3%
COc1ccccc1CCC(=O)NC1CCCN(c2ccc(C(F)(F)F)cn2)C1 (centres undefined)	-3.1%	nt	-10.8%	-4.4%	2.1%	nt	nt	nt
CCCC(=O)Nc1nc2ccc(C(=O)OCC)cc2s1	-4.9%	nt	50.8%[activator]	16.8%	0.5%	nt	3.3%	-1.8%
Cc1ccnc(NC(=O)CCC(=O)c2cc(C)sc2C)c1	-1.7%	15.5%[46.1 µM]	1.1%	4.0%	nt	24.8%	nt	nt
Cc1oc2cc3oc(=O)c4c(c3cc2c1C)CCC4	3.1%	?	13.0%	-10.7%	-5.1%	19.3%	0.0%	-4.8%
CC(CN1CCN(C)CC1)OC(=O)c1ccc(F)cc1 (centres undefined)	0.6%	7.4%	7.3%	-4.0%	nt	?	nt	nt
Cc1cc(C)n2nc(CNS(=O)(=O)c3ccc(F)c(C)c3)nc2n1	0.4%	nt	-16.6%	4.2%	-9.2%	nt	nt	nt
COc1ccc(CN(C)CC(=O)Nc2ccc(N3CCOCC3)cc2)cc1OC	5.0%	?	-17.8%	12.1%	12.2%	0.8%	2.5%	-4.0%
COc1ccccc1CSc1nc2c(c(=O)n(C)c(=O)n2C)n1C	-0.1%	nt	-29.9%	0.9%	-2.4%	nt	nt	nt
COc1ccc(S(=O)(=O)N2CCOCC2)cc1NC(=O)c1ccc2c(c1)OCCO2	0.6%	1.1%	21.9%	-3.5%	nt	?	nt	nt
CC(C)C(=O)Nc1ccc2c(c1)oc1ccccc12	-16.1%	?	19.1%	-16.3%	-56.9%	?	-2.4%	-28.2%
O=C(Nc1ccc2c(c1)C(=O)OC2)c1ccc(Cl)cc1Cl	1.3%	-6.8%[46.1 µM]	32.5%[activator]	-15.6%	-9.5%	15.6%[46.1 µM]	nt	nt
CCN(CC)C(=O)c1ccc(NS(=O)(=O)c2ccc(/C=C/C(=O)O)cc2)cc1	-0.7%	0.1%[46.1 µM]	-9.1%	1.7%	nt	22.7%	nt	nt
CCOc1ccc(NC(=S)N2CCC(c3ccc(C)cc3)C2)cc1 (centres undefined)	-4.5%	nt	-6.8%	-0.6%	2.5%	nt	nt	nt
CC(=O)c1sc(-c2ccccc2)cc1NS(=O)(=O)c1ccc(C)cc1	-0.3%	?	-12.6%	3.5%	-3.7%	-23.4%[46.1 µM]	nt	nt
C=CCn1c(SCC#N)nc2ccccc2c1=O	0.0%	0.4%	12.9%	-2.7%	-11.2%	2.5%	2.4%	4.5%
CCCn1cnc2cc(NC(=O)c3ccco3)ccc21	1.3%	nt	3.2%	-0.4%	-23.7%	nt	nt	nt
O=C1NCCN(Cc2ccc(Cl)c(F)c2)C1CC(=O)N1CCCO1 (centres undefined)	-0.9%	0.9%[46.1 µM]	23.9%	-24.9%	9.2%	-2.0%[46.1 µM]	nt	nt
CSC1(SC2=NCCN2)SC2(NCCN2)S1	nt	10µM*	-9.7%	-13.5%	-8.3%	9.6%	-5.8%	-17.2%
CCCOC(=O)C1=C(C)NC(=O)NC1c1cccc2ccccc12 (centres undefined)	-3.2%	nt	-27.6%	1.9%	2.3%	nt	nt	nt
COc1ccc(C(=O)NN/C(=N/S(=O)(=O)c2ccc(C)cc2)c2ccccc2)cc1	-1.6%	?	62.7%[activator]	-23.7%	-32.4%	8.91µM*	nt	nt
COc1ccc(-c2cc(-c3ccc(OC)cc3)c(C#N)c(SC)n2)cc1	4.7%	-6.4%	-1.6%	-2.9%	3.0%	11.1%	-0.8%	?
COc1ccc(-c2csc(Nc3ccc(S(=O)(=O)Nc4cc(C)on4)cc3)n2)cc1	0.4%	-12.5%	2.4%	8.0%	nt	2.0%	nt	nt
COCC(C)NC(=O)c1ccc(CN2CCc3ccccc3C2)cc1 (centres undefined)	1.3%	nt	-12.4%	-7.4%	?	nt	nt	nt
Cc1ccc(-c2nn(CC(=O)NC3CCCC3)c3c2cnc2ccccc23)cc1	nt	nt	1.6%	nt	nt	16.9%[46.1 µM]	-1.8%	?
O=C(Nc1ccn(Cc2ccccc2)n1)c1ccc2c(c1)OCO2	-0.9%	nt	16.4%	-7.2%	-8.8%	nt	nt	nt
CCc1ccc(NC(=O)N2CCc3ccccc3C2)cc1	-11.9%	?	29.3%	-13.3%	-39.7%	?	nt	nt
O=C(O)Cc1ccc(C(=O)c2ccc(F)cc2)s1	-3.7%	-7.4%	10.2%	2.6%	-3.0%	11.3%	3.1%	-1.3%
N#CCCCCN1c2cccc3cccc(c23)S1(=O)=O	4.7%	15.4%	-11.1%	-21.4%	-10.8%	21.1%	-2.2%	-9.0%
COc1cccc(NC(=O)[C@@H]2CCCN2C(=O)C2CCN(S(=O)(=O)c3ccc(C)cc3)CC2)c1	-2.4%	-17.1%	-13.0%	0.1%	-4.5%	-8.0%	-3.1%	25.1%
Cc1ccc(/C=C/C(=O)Nc2ccccc2C(N)=O)o1	nt	?	44.3%[activator]	nt	nt	16.1%[46.1 µM]	-9.2%	-12.6%
CC(NC(=O)c1ccc(Cn2cc([N+](=O)[O-])cn2)cc1)c1ccccc1 (centres undefined)	4.1%	-13.8%	-18.3%	-1.4%	9.4%	?	-0.7%	-2.7%
COc1cccc(/C=N/n2c(C3CCCCC3)n[nH]c2=S)c1OC	-0.9%	nt	-11.9%	7.9%	-0.4%	nt	nt	nt
CCOc1cccc(-c2nn(-c3ccccc3)cc2/C=C(/C#N)C(=O)NCCCn2ccnc2)c1	-18.4%	?	?	8.2%	24.0%	?	-3.4%	11.2%
O=C(CCc1nnc(-c2ccccc2)o1)NCc1c(F)cccc1F	-1.7%	?	52.8%	13.8%	-3.1%	24.4%[46.1 µM]	nt	nt
